Source: PubChem BioAssay (National Center for Advancing Translational Sciences (NCATS))
VACV Venus inh = vaccinia inhibition (Venus reporter); Potency, µM (doses to about 36.5 µM), for inactives: at the top dose activity change, negative = inhibition, actives largely listed as inhibitors; actives 0.46% (n = 330,000); Vaccinia virus Venus reporter expression, fluorescence; active means well fitted inhibition curve with a large enough effect; inconclusive means small, poorly fitted or top-dose-only effect; inactive means no such curve, though single readings can be large or run the other way; tested in A549 cells; also: nearly all actives have a fitted effect of over 30% in size; inactives centre near -10
VACV mCherry inh = inhibitors of vaccinia virus infection (mCherry reporter signal); Vaccinia virus mCherry reporter infection, fluorescence; about a quarter of the inactives have no number; Potency, µM (titrated, usually from 36.5 µM), for inactives: at the top dose activity change, negative = inhibition, hits mostly inhibitors; actives 0.63% (n = 310,000); AID 720579; active = well fitted inhibition curve with a large enough effect; inconclusive = small, poorly fitted or top-dose-only effect; inactive = no such curve, though single readings can be large or run the other way; tested in A549 cells; also: nearly all actives have a fitted effect of over 35% in size; inactives centre near -10
Starred values were filed as active, the others as inactive; [ ] = another dose, or the depositor's remark. % is scaled to controls: 0 for no effect and ±100 for the full control effect; potency is read from the fitted curve at half-maximal effect.

Screening COc1ccc(-n2cc(CNC3CCC(O)CC3)c(-c3cccc(F)c3)n2)cc1 (stereo not drawn) returned VACV Venus inh -17.0% and VACV mCherry inh -17.8%.
COc1ccc(CNS(=O)(=O)c2ccc(C)cc2)cc1 was read as VACV Venus inh -14.5% and VACV mCherry inh -8.9%.
Screening O=C(CSc1nc(Nc2ccccc2)nc(N2CCOCC2)n1)NC1CCCCC1 returned VACV Venus inh -22.8% and VACV mCherry inh -9.2%.
O=C(NCc1ccc2c(c1)OCO2)C(C(=O)c1ccccc1)n1cc(Cl)ccc1=O (stereo not drawn) was read as VACV Venus inh -10.1% and VACV mCherry inh -14.0%.
`C=C(C)CN(CC)C(=O)CCc1nnc(CCCc2ccccc2)o1` gave VACV Venus inh -0.2% and VACV mCherry inh -1.6%.
Screening CC1=C(C(=O)Nc2ccccc2C(F)(F)F)C(c2sccc2C)NC(=S)N1 (stereo not drawn) returned VACV Venus inh -6.7% and VACV mCherry inh -3.6%.
Screening Cc1ccc(Nc2nnc(SCC(=O)NC3CCCc4ccccc43)s2)cc1 (stereo not drawn) returned VACV Venus inh -17.0% and VACV mCherry inh -22.3%.
Cc1ccc(NC(=O)c2ccc(OC(=O)c3cc4ccccc4o3)cc2)cc1 was read as VACV Venus inh -4.0% and VACV mCherry inh -9.2%.
CC(C)(CO)NS(=O)(=O)c1ccc2c(c1)Cc1cc(S(=O)(=O)NC(C)(C)CO)ccc1-2 was read as VACV Venus inh -19.6% and VACV mCherry inh inactive.
`O=C(c1cccc(N2CCCC2=O)c1)N1CCOCC1` gave VACV Venus inh -8.0% and VACV mCherry inh -12.0%.
COc1ccc(/C=N/NC(=O)c2cccc(OC(F)(F)C(F)F)c2)c(OC)c1OC was read as VACV Venus inh -6.6% and VACV mCherry inh -6.1%.
Screening Cc1ccc(Nc2ccc(N3CCN(C(=O)c4cccc([N+](=O)[O-])c4)CC3)nn2)cc1 returned VACV Venus inh -23.8% and VACV mCherry inh inconclusive.
Cc1cccc(C)c1NC(=O)C1(C)CN(S(C)(=O)=O)CC(=O)N1Cc1cccc(F)c1 (stereo not drawn) was read as VACV Venus inh -6.5% and VACV mCherry inh -17.7%.
For CCCOc1ccc(NC(=O)CC2C(=O)N(c3ccc(C)cc3)C(=O)N2C(C)C)cc1 (stereo not drawn) the results were VACV Venus inh -2.2% and VACV mCherry inh -3.6%.
Screening CCc1cccc(NC(=O)c2cc3c(=O)n(Cc4ccc(OC)cc4)ccc3nc2C)c1 returned VACV Venus inh -14.0% and VACV mCherry inh -7.2%.
O=C(C1=C[C@@H](c2csc3ccccc23)C[C@@H](OCc2ccc(CO)cc2)O1)N1CCOCC1 was read as VACV Venus inh -19.1% and VACV mCherry inh -16.0%.
For COc1ccc(C(=O)NC2CC2)cc1OC1CCN(Cc2ccc(F)cc2F)CC1 the results were VACV Venus inh -8.2% and VACV mCherry inh -8.7%.
For Cc1ccc(C(=O)N/N=C/c2ccc(S(=O)(=O)O)o2)c(Cl)c1 the results were VACV Venus inh -5.2%.
For CCOC(=O)C(C)n1cnc2sc3c(c2c1=O)CCC3 (stereo not drawn) the results were VACV Venus inh -3.1% and VACV mCherry inh -4.1%.
`O=S(=O)(NCc1cccs1)c1ccccc1Cl` gave VACV Venus inh -16.5% and VACV mCherry inh inactive.
For Cc1cc(=O)oc2c3c(cc(OCC(=O)NCCC(=O)N[C@@H](C)C(=O)O)c12)OC(C)(C)CC3 the results were VACV Venus inh -15.1% and VACV mCherry inh inactive.
Screening NC(=O)CC(NC(=O)Cc1ccc(Cl)cc1)c1ccc(N2CCN(c3ccccn3)CC2)c([N+](=O)[O-])c1 (stereo not drawn) returned VACV Venus inh -11.9% and VACV mCherry inh -21.9%.
`CCOC=C1SC(=S)N(c2ccccc2OC)C1=O` gave VACV Venus inh 42.3%[activator] and VACV mCherry inh inactive.
For CC(C)OP(=O)(OC(C)C)C1(O)C(=O)Nc2ccccc21 (stereo not drawn) the results were VACV Venus inh -6.3% and VACV mCherry inh inactive.
CCCn1c(SC2C(=O)CC(C)(C)CC2=O)nc2c1c(=O)n(C)c(=O)n2C was read as VACV Venus inh inconclusive and VACV mCherry inh -18.9%.
`Cc1c(N/C=C/C(=O)c2ccc(Cl)cc2)c(=O)n(-c2ccccc2)n1C` gave VACV Venus inh -13.2% and VACV mCherry inh -10.9%.
Screening COc1ccc(NC(=O)N2CCc3c(sc4c3CCCC4)C2c2ccc(F)cc2)cc1 (stereo not drawn) returned VACV Venus inh -17.0% and VACV mCherry inh -24.1%.
Screening Cc1ccccc1NC(=O)Cn1c(CCC(=O)O)ccc1-c1cccs1 returned VACV Venus inh 1.0% and VACV mCherry inh 2.4%.
`CCOc1ccc(OCC)c(NC(=O)CCCN2C(=O)c3cccnc3C2=O)c1` gave VACV Venus inh 2.1% and VACV mCherry inh 0.0%.
`Cc1cc(C)n(-c2ccc3nnc(C)n3n2)n1` gave VACV Venus inh -18.5% and VACV mCherry inh inactive.
Screening CCCc1nc2ccc(C)cn2c1Cc1cccc(F)c1 returned VACV Venus inh -4.5% and VACV mCherry inh inactive.
`CN(C)CCCNC(=S)Nc1ccc(Oc2ccccc2)cc1` gave VACV Venus inh -8.0% and VACV mCherry inh -26.3%.
For CCN(c1ccccc1)S(=O)(=O)c1ccc(OC)c(NC(=O)c2ccccc2OC)c1 the results were VACV Venus inh -28.0% and VACV mCherry inh -6.8%.
For CCCCN(CCCC)S(=O)(=O)c1ccc2oc(C(=O)NCc3ccc(C)cc3)c(C)c2c1 the results were VACV Venus inh -6.8% and VACV mCherry inh -0.6%.
Screening COc1ccc(NC(=O)c2sc3nc(N4CCOCC4)c4c(c3c2N)CC(C)(C)OC4)cc1 returned VACV Venus inh -10.8% and VACV mCherry inh 0.4%.
CN1CCN(c2ccc(NC(=O)c3ccc4c(c3)[nH]c(=O)n4Cc3ccc(F)cc3)cc2)CC1 was read as VACV Venus inh -26.8% and VACV mCherry inh inconclusive.
`O=C(CN1c2cccc3cccc(c23)S1(=O)=O)Nc1ccccc1` gave VACV Venus inh -6.9% and VACV mCherry inh -15.9%.
Cc1nc(N2CCN(C(=O)c3ccco3)CC2)[nH]c(=O)c1C was read as VACV Venus inh -4.0% and VACV mCherry inh inactive.
Screening N#Cc1ncc(C(F)(F)F)cc1Oc1cccnc1 returned VACV Venus inh -16.9% and VACV mCherry inh inactive.
Clc1cc2nc[nH]c2cc1Cl was read as VACV Venus inh -5.0% and VACV mCherry inh -16.9%.

Filtered by structure, the compounds so far containing two or more sulfur atoms (five)
Screening CC1=C(C(=O)Nc2ccccc2C(F)(F)F)C(c2sccc2C)NC(=S)N1 (stereo not drawn) returned VACV Venus inh -6.7% and VACV mCherry inh -3.6%.
Screening Cc1ccc(Nc2nnc(SCC(=O)NC3CCCc4ccccc43)s2)cc1 (stereo not drawn) returned VACV Venus inh -17.0% and VACV mCherry inh -22.3%.
CC(C)(CO)NS(=O)(=O)c1ccc2c(c1)Cc1cc(S(=O)(=O)NC(C)(C)CO)ccc1-2 was read as VACV Venus inh -19.6% and VACV mCherry inh inactive.
`O=S(=O)(NCc1cccs1)c1ccccc1Cl` gave VACV Venus inh -16.5% and VACV mCherry inh inactive.
`CCOC=C1SC(=S)N(c2ccccc2OC)C1=O` gave VACV Venus inh 42.3%[activator] and VACV mCherry inh inactive.

Following part.
`CCOC(=O)N1CCN(C(c2cccc(OC)c2)c2sc3nc(C)nn3c2O)CC1` (stereo not drawn) gave VACV Venus inh -12.5% and VACV mCherry inh inactive.
`CCOc1ccc(CCN2C(=S)N([C@@H](CC(C)C)CN3CCCC3CN3C(=S)NC[C@@H]3Cc3ccc(O)cc3)C[C@@H]2Cc2ccc(O)cc2)cc1` (stereo partly drawn) gave VACV Venus inh 10µM* and VACV mCherry inh inconclusive.
`COc1ccc2cc(CNc3ccc(C)cc3)c(=O)n(CC(=O)Nc3cccc(Cl)c3C)c2c1` gave VACV Venus inh 4.0% and VACV mCherry inh -4.7%.
`Cc1nn(C)c(C(=O)Nc2cccc(CN3CCOCC3)c2)c1Br` gave VACV Venus inh -10.7% and VACV mCherry inh inactive.
`Cc1cc([N+](=O)[O-])nn1CCCC(=O)Nc1cc(Cl)ccc1Cl` gave VACV Venus inh 15.4% and VACV mCherry inh -14.0%.
`CCN1CCN(Cc2ccc(OCc3ccccc3)c(OC)c2)CC1` gave VACV Venus inh -4.4% and VACV mCherry inh -1.6%.
Screening Cc1cccnc1NC(=O)CN1C(=O)NC(C)(c2ccc3ccccc3c2)C1=O (stereo not drawn) returned VACV Venus inh -13.6% and VACV mCherry inh inactive.
Screening COc1ccc(NS(=O)(=O)c2cc(NC(=O)CCSc3ccccc3)ccc2OC)cc1 returned VACV Venus inh inconclusive and VACV mCherry inh inconclusive.
`CCC(Oc1ccc(Br)cc1)C(=O)N1CCN(c2ncccn2)CC1` (stereo not drawn) gave VACV Venus inh -15.6% and VACV mCherry inh -15.0%.
Screening CCOc1ccccc1Nc1sc(C(=O)c2ccc(Cl)cc2)c(N)c1S(=O)(=O)c1ccccc1 returned VACV Venus inh -8.5% and VACV mCherry inh -10.3%.
COc1ccc(Nc2ncnc3c2cnn3-c2ccc(C)cc2)cc1Cl was read as VACV Venus inh -14.3% and VACV mCherry inh -17.6%.
CCCc1cc(-c2n[nH]c(=S)n2-c2cccc(C)c2)cs1 was read as VACV Venus inh -3.7% and VACV mCherry inh -1.9%.
Screening COc1cccc(-c2nn(C)c3sc(C(=O)Nc4ccc5c(c4)OCCO5)cc23)c1 returned VACV Venus inh -1.4% and VACV mCherry inh -15.5%.
Nc1cccc(NC(=O)c2ccco2)c1 was read as VACV Venus inh 4.0% and VACV mCherry inh inactive.
For Cc1noc(C)c1CN1C(=O)NC(Cc2ccccc2)(Cc2ccccc2)C1=O the results were VACV Venus inh -9.1%.
For CCc1ccc(OCC(=O)NNCC(=O)Nc2ccc(OC)cc2)cc1 the results were VACV Venus inh -9.6% and VACV mCherry inh -11.7%.
COc1cc2c(cc1NC(=O)CSc1nnc(Cc3cccs3)n1C)oc1ccccc12 was read as VACV Venus inh -28.1%.
Cc1ccc(-c2nc3[nH]c(=O)cc(NC(=O)c4cccs4)n3n2)cc1 was read as VACV Venus inh 0.0% and VACV mCherry inh -22.7%.
Screening O=C(CN1CCCCCC1)Nc1ccc([N+](=O)[O-])cc1Cl returned VACV Venus inh -1.3% and VACV mCherry inh inactive.
`C/C(=N\NC(=O)c1nc2ccccn2c1C)c1ccc2c(c1)OCO2` gave VACV Venus inh -17.0% and VACV mCherry inh inactive.

Molecules shown so far with a COOH group:
For Cc1cc(=O)oc2c3c(cc(OCC(=O)NCCC(=O)N[C@@H](C)C(=O)O)c12)OC(C)(C)CC3 the results were VACV Venus inh -15.1% and VACV mCherry inh inactive.
Screening Cc1ccccc1NC(=O)Cn1c(CCC(=O)O)ccc1-c1cccs1 returned VACV Venus inh 1.0% and VACV mCherry inh 2.4%.

Carrying on:
Screening COc1cccc(C(=O)CSc2nnnn2C)c1 returned VACV Venus inh -13.2% and VACV mCherry inh -5.7%.
`CCc1ccc(C(c2ccccc2)c2c(C)[nH]c3ccccc23)s1` (stereo not drawn) gave VACV Venus inh -12.6% and VACV mCherry inh -13.3%.
`C=CCN(CC=C)S(=O)(=O)c1ccc(C(=O)Nc2nnc(CSC)o2)cc1` gave VACV Venus inh -24.6% and VACV mCherry inh inconclusive.
For CN(C1CCCCC1)S(=O)(=O)c1ccc2[nH]c(=O)oc2c1 the results were VACV Venus inh -3.8% and VACV mCherry inh -9.1%.
Screening CCN(CC)S(=O)(=O)c1ccc(C)c(NC(=S)Nc2cccc(S(=O)(=O)N3CCCCCC3)c2)c1 returned VACV Venus inh -19.9% and VACV mCherry inh inactive.
Cc1ccc(C)c(/C=C(\C(=O)O)c2ccc(S(=O)(=O)N3CCCCC3)s2)c1 was read as VACV Venus inh 6.7% and VACV mCherry inh 3.4%.
`COc1ccc(F)cc1CN1CCN(C(=O)CCC(=O)Nc2nnc(C3CCCCC3)s2)CC1` gave VACV Venus inh -8.2% and VACV mCherry inh -7.4%.
COc1ccc2[nH]c(C)c(CCN3C(=O)C4C5C=CC(C5)C4C3=O)c2c1 (stereo not drawn) was read as VACV Venus inh -1.3% and VACV mCherry inh -16.9%.
CCOc1cc(N2CCOCC2)c(OCC)cc1NC(=O)COC(=O)CCOc1cc(C)ccc1C was read as VACV Venus inh -4.4% and VACV mCherry inh -15.6%.
`Cc1ccc2c(c1)-c1c(cnn1CC(=O)Nc1ccccc1N1CCN(C)CC1)CO2` gave VACV Venus inh -0.2% and VACV mCherry inh inactive.
C/C=C/c1ccc(OC(C)=O)c(OC)c1 was read as VACV Venus inh -7.9% and VACV mCherry inh inconclusive.
CCOC(=O)c1c(NC(=O)C2CCCCC2)sc2c1CCN(CC)C2 was read as VACV Venus inh -17.7% and VACV mCherry inh 24.0%.
For Cc1c(NC(=O)C2CCCN2S(=O)(=O)c2ccc(Cl)cc2)c(=O)n(-c2ccccc2)n1C (stereo not drawn) the results were VACV Venus inh -5.6% and VACV mCherry inh -12.4%.
Screening CCN(CC)C(=O)c1sc2nc(-c3ccccc3)ccc2c1N returned VACV Venus inh -0.4% and VACV mCherry inh -25.0%.
Screening O=C(Nc1ccc2oc(Cc3ccc(Cl)cc3)nc2c1)c1cccnc1 returned VACV Venus inh inconclusive and VACV mCherry inh -28.3%.
For Cc1ccc(C)c(N(C)C(=O)C2CCN(c3ncnc4c3nc3n4CCCCC3)CC2)c1 the results were VACV Venus inh -16.2% and VACV mCherry inh -10.7%.
Screening Cc1c(C(=O)N/N=C/c2cccs2)nc2ccccn12 returned VACV Venus inh -9.7% and VACV mCherry inh -10.1%.
